HPGD block: HPGD (human) dehydrogenase inhibition. 150,000 tested, 4.3% active. Potency, µM, for the others: at the highest dose activity change, negative = inhibition, usual class: inhibitors. purified HPGD, NADH fluorescence kinetic, PGE2 substrate. AID 894; active = well fitted inhibition curve with a large enough effect (not every such curve was filed as active); inconclusive = small, poorly fitted or top-dose-only effect, or another doubt; inactive = no such curve, though single readings can be large or run the other way;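 further: top concentration of the series not given in the record; plate controls included wells without enzyme; inactives centre near -10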
Target sequence (P15428 whole entry, looked up): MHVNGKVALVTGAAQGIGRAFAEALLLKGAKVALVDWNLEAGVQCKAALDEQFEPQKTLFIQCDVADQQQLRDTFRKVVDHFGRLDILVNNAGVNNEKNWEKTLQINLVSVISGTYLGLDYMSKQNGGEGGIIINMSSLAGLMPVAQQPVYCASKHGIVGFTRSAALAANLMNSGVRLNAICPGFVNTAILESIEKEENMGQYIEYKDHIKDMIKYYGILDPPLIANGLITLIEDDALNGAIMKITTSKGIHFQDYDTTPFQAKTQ
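20 nM HPGD preincubated 15 min at room temperature with compound in 50 mM Tris-HCl pH 8, 0.01% Tween 20. Started with 1 mM NAD+ and 30 uM prostaglandin E2; NADH fluorescence (360/450 nm) read 5 times over 30-s intervals, last minus first.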
* hit, by the source's call. On the % scale 0 is the no-effect control and ±100 the full control effect; potency means the concentration at half of the fitted maximal effect. These rows are one share of the data. The share of hits here may be higher or lower than overall.

For COc1ccc(-n2nnnc2-c2cnc3cc4c(cc3c2C)OCO4)cc1 the results were HPGD block -9%.
`CC(C)CCNC(=O)Cc1ccccc1[N+](=O)[O-]` gave HPGD block -10%.
Screening COC(=O)C1=C(C(=O)OC)C2(OC1c1ccc(Br)cc1)C(=O)c1ccccc1C2=O (stereo not given) returned HPGD block -19%.
Screening COc1ccc(Sc2cnn(-c3ccccc3)c(=O)c2Cl)cc1 returned HPGD block -2%.
For O=C(NCc1ccco1)c1c(F)cccc1Cl the results were HPGD block 14µM*.
For COc1ccc(Cc2n[nH]c(=O)c3ccccc23)cc1OC the results were HPGD block -16%.
Screening O=C(Nc1cc(S(=O)(=O)N2CCCCC2)ccc1O)c1ccccc1NS(=O)(=O)c1ccc(F)cc1 returned HPGD block inconclusive.
CCCc1cc(=O)[nH]c(SCc2ccccc2)n1 was read as HPGD block 16µM*.
COc1cccc(NC(=S)NNC(=O)c2ccccc2OC(F)F)c1 was read as HPGD block inconclusive.
Screening O=C(Nc1c(-c2cccs2)nc2ccccn12)c1ccc2ccccc2c1 returned HPGD block -4%.
For O=C(Nc1ccc(CN2CCOCC2)cc1)c1ccc(-c2ccc(Br)cc2)o1 the results were HPGD block -3%.
`CCC(=O)Nc1ccc(Cl)c(NC(=O)c2cccnc2)c1` gave HPGD block -4%.
`O=C(COC(=O)CCc1ccc(S(=O)(=O)N2CCCCC2)cc1)Nc1cccc2ccccc12` gave HPGD block -2%.
Screening CNCc1ccccc1Sc1cccc2ccccc12 returned HPGD block -5%.
For COc1ccccc1NC(=O)C(=O)NCc1ccncc1 the results were HPGD block -6%.
`CCC(C)NC(=O)C(=O)NCc1ccncc1` (stereo not given) gave HPGD block -8%.
Screening CCOC(=O)c1c(C)oc2c1cc(O)c1ccccc12 returned HPGD block -8%.
`CC(=Nc1ccccc1)C1=C(O)COC1=O` gave HPGD block -9%.
`Cc1ccc(S(=O)(=O)N(C)C)cc1-n1c(SCC(=O)Nc2ccc(F)cc2Cl)nc2ccccc2c1=O` gave HPGD block inconclusive.
`O=C(O)CCn1nnc(-c2cccs2)n1` gave HPGD block 0%.
Screening Cc1cc2c(cc1C)CSC(c1ccc(O)cc1)SC2 returned HPGD block -18%.
CN1CCN(C(c2cccnc2)c2ccc3cccnc3c2O)CC1 (stereo not given) was read as HPGD block -29%.
For CCOc1cc(C2CC(=O)NC(SCC)=C2C#N)ccc1O (stereo not given) the results were HPGD block -2%.
`CCc1ccc(NC(=O)CS(=O)CC(=O)NCCCc2ccccc2)cc1` (stereo not given) gave HPGD block -6%.
`CCn1c(COc2ccccc2C)nnc1SCC(=O)N1CCN(c2ccccc2)CC1` gave HPGD block -11%.
Cc1ccn2cc(-c3cnoc3C)nc2c1 was read as HPGD block inconclusive.
Screening CN(C)S(=O)(=O)N(CC(=O)Nc1ccccc1)c1ccccc1 returned HPGD block -1%.
Screening O=C(CC1NCCNC1=O)Nc1cc(Cl)cc(Cl)c1 (stereo not given) returned HPGD block -11%.
Screening Cc1ccc(C2=Nc3ccccc3S[C@@H](c3cccc([N+](=O)[O-])c3)C2)cc1 returned HPGD block -29%.
`CC(NS(C)(=O)=O)C(c1cccs1)N1CCN(C)CC1` (stereo not given) gave HPGD block -12%.
`CC(C)(C)N(Cc1cc2ccccc2[nH]c1=O)C(=O)C1CCCCC1` gave HPGD block -20%.
For CCC(NC(=O)NCc1ccc2c(c1)OCO2)(C(F)(F)F)C(F)(F)F the results were HPGD block -2%.
`Cn1c(=O)c2c(nc(CN3CCCCC3)n2CCc2ccccc2)n(C)c1=O` gave HPGD block -4%.
CCOC(=O)C1=c2s/c(=C\c3cccnc3)c(=O)n2C(N)=C(C(=O)OC)C1c1cccnc1 (stereo not given) was read as HPGD block -15%.
Cc1nnc(SCC(=O)NCc2ccccc2)n1-c1ccccc1 was read as HPGD block -11%.
CC(=O)NC(Cc1ccc(F)cc1)C(=O)NC1CCN(c2nnnn2-c2ccccc2)CC1 (stereo not given) was read as HPGD block -13%.
For COc1ccc(-n2nnnc2SCC(=O)c2ccc3c(c2)OCCO3)c(OC)c1 the results were HPGD block -15%.
For Cc1ccc(N(C(=O)Cc2c[nH]c3ccccc23)C(C(=O)NC2CCCCC2)c2ccco2)cc1 (stereo not given) the results were HPGD block -6%.
For COC(=O)c1c(NC(=O)CN2CCN(S(=O)(=O)c3ccccc3[N+](=O)[O-])CC2)sc2c1CCC(C)C2 (stereo not given) the results were HPGD block -3%.
Cc1cccc(N=CC=C2OC(C)(C)C(C)(C)O2)c1 was read as HPGD block inconclusive.
`CCOc1ccc(C2C(C(=O)O)c3ccccc3C(=O)N2CCN2CCOCC2)cc1` (stereo not given) gave HPGD block -17%.
`O=C(NCCc1ccccc1)c1ccc(Cl)c([N+](=O)[O-])c1` gave HPGD block -19%.
CCOC(=O)c1c(-c2ccccc2)csc1NC(=O)/C(C#N)=C/c1ccc(OC)c(OC)c1 was read as HPGD block -2%.
For O=[N+]([O-])c1cccc(-c2ccc(/C=N/n3c(-c4ccccc4)n[nH]c3=S)o2)c1 the results were HPGD block inconclusive.
For CCN(CC)c1ccc(NC(=O)c2cncc(Br)c2)cc1 the results were HPGD block -10%.
`O=C(O)c1cc(-c2ccc(Cl)cc2)n[nH]1` gave HPGD block -12%.
`O=C(c1ccccc1)c1cccc(NC(=O)C2CC2)c1` gave HPGD block -6%.
Screening Cc1ccc(S(=O)(=O)N2CCN(C(=O)CSc3nc4ccccc4c(=O)[nH]3)CC2)cc1 returned HPGD block -15%.
`CCOC(=O)c1sc(-c2ccc(OC)cc2)cc1N` gave HPGD block inconclusive.
Screening CC(=O)N1CCc2cc(S(=O)(=O)NCCC(=O)NC3CCN(Cc4ccccc4)CC3)ccc21 returned HPGD block 4%.
For COc1ccc(CNC(=O)c2ccc(CN3CCOCC3)cc2)cc1 the results were HPGD block -1%.
Screening O=S(=O)(c1ccc(-c2ccccc2)cc1)N1CCOCC1 returned HPGD block -15%.
`CC(C)CC(=O)N1CCN(Cc2ccc3c(c2)OCO3)CC1` gave HPGD block -8%.
N#Cc1cc(-c2ccccc2)nc(Oc2ccccc2)n1 was read as HPGD block inconclusive.
`CCOC(=O)N1CCC(=NNC(=O)c2cc3ccccc3cc2O)CC1` gave HPGD block -9%.
Screening CC1(C)C2CC=C(/C=N/n3cnnc3)C1C2 (stereo not given) returned HPGD block -1%.
Screening Cc1ccc(Cl)cc1NC(=O)c1ccccc1OCC(=O)Nc1ccc(Cl)cc1 returned HPGD block -11%.
Screening CCN(CC)C(=O)Cn1c(=O)n(C)c2ccccc21 returned HPGD block -11%.
Screening CN(C)CCN1C(=O)C(=O)/C(=C(/O)c2ccccc2)C1c1ccccc1F (stereo not given) returned HPGD block -16%.
CCC/C=C(\CCC)C(NC(=O)Oc1ccc(F)cc1)c1ccc(C(=O)OC)cc1 (stereo not given) was read as HPGD block -8%.
For Cc1ccc(-c2cc(=O)c3ccc(Cl)cc3[nH]2)cc1 the results were HPGD block -3%.
Screening CCNc1[nH]c(=O)n(C)c(=O)c1N=O returned HPGD block -20%.
For CCOc1ccc(-c2cc(CCCC(=O)NCCc3ccccc3)no2)cc1 the results were HPGD block -30%.
`CCN(CC#CCC1(O)c2ccccc2-c2ccccc21)CCO` gave HPGD block -11%.
`O=c1c2ccccc2nc(SCc2nnc(-c3ccccc3Br)o2)n1-c1ccccc1` gave HPGD block -6%.
Screening CCOc1c(Cl)cc(CNC(C)(C)CC(C)(C)C)cc1OC returned HPGD block -3%.
Screening O=C(CN(C1CCCCC1)S(=O)(=O)c1ccccc1)NCc1cccnc1 returned HPGD block 3%.
For O=C(Cc1ccccc1)N[C@@H](Cc1ccccc1)c1nc2ccccc2[nH]1 the results were HPGD block -10%.
Screening CCOC(=O)C1CCCN(Cc2ccccc2C)C1 (stereo not given) returned HPGD block 7%.
For COCCCNC(=O)C1CC(=O)N(Cc2ccc(OC)cc2)C1 (stereo not given) the results were HPGD block -1%.

Pulled one by one from the entries so far, 6 records:
`CC(C)(C)N(Cc1cc2ccccc2[nH]c1=O)C(=O)C1CCCCC1` gave HPGD block -20%.
`CCC(C)NC(=O)C(=O)NCc1ccncc1` (stereo not given) gave HPGD block -8%.
`Cn1c(=O)c2c(nc(CN3CCCCC3)n2CCc2ccccc2)n(C)c1=O` gave HPGD block -4%.
For CCN(CC)c1ccc(NC(=O)c2cncc(Br)c2)cc1 the results were HPGD block -10%.
CCOC(=O)C1=c2s/c(=C\c3cccnc3)c(=O)n2C(N)=C(C(=O)OC)C1c1cccnc1 (stereo not given) was read as HPGD block -15%.
Screening O=S(=O)(c1ccc(-c2ccccc2)cc1)N1CCOCC1 returned HPGD block -15%.

Later entries
`CCCCOCP(=O)(CC)COCCCC` gave HPGD block -9%.
Screening Cc1cnc(C(=O)OCC(=O)NC2CCCCC2)cn1 returned HPGD block -9%.
CCOC(=O)N1CCC(NS(=O)(=O)c2ccc3c(c2)CCN3C(C)=O)CC1 was read as HPGD block -7%.
`C=CCc1ccc(OCCOCCOc2ccccc2[N+](=O)[O-])c(OC)c1` gave HPGD block -13%.
`CCN(C(=O)C1CCCCC1)c1nnc(-c2cccnc2)s1` gave HPGD block -13%.
For Cn1c(=O)c(-c2ccc(F)cc2)nc2cnc(Oc3ccccc3)nc21 the results were HPGD block inconclusive.
For O=Cc1ccc(OC(=O)c2cc(Cl)nc3ccccc23)cc1 the results were HPGD block -30%.
Screening CC(=O)NC(C)C(=O)OCC(=O)c1ccc(Cl)s1 (stereo not given) returned HPGD block -28%.
`Cn1c(C(=O)N2CCCc3ccccc32)cc2sccc21` gave HPGD block 16µM*.
Screening CCn1c(SCC(=O)Nc2nnc(C)s2)nnc1-c1ccco1 returned HPGD block -5%.

6 neighbouring records out of the list so far, quoted:
Screening Cc1cnc(C(=O)OCC(=O)NC2CCCCC2)cn1 returned HPGD block -9%.
CCOC(=O)N1CCC(NS(=O)(=O)c2ccc3c(c2)CCN3C(C)=O)CC1 was read as HPGD block -7%.
`C=CCc1ccc(OCCOCCOc2ccccc2[N+](=O)[O-])c(OC)c1` gave HPGD block -13%.
`CCN(C(=O)C1CCCCC1)c1nnc(-c2cccnc2)s1` gave HPGD block -13%.
For Cn1c(=O)c(-c2ccc(F)cc2)nc2cnc(Oc3ccccc3)nc21 the results were HPGD block inconclusive.
For O=Cc1ccc(OC(=O)c2cc(Cl)nc3ccccc23)cc1 the results were HPGD block -30%.

Remaining list, next part.
NCc1ccccc1CC(=O)N[C@@H]1C(=O)N2C(C(=O)O)=C(CSc3nnnn3CC(=O)O)CS[C@@H]12 was read as HPGD block -24%.
For CCN1CCCC(OC(=O)C(c2ccccc2)c2ccccc2)C1 (stereo not given) the results were HPGD block -3%.
Screening Nc1nc2ccc(Oc3ccccc3)cc2s1 returned HPGD block -19%.
`CCOC(=O)c1sc2cc([N+](=O)[O-])cc(SCC(C)C)c2c1N` gave HPGD block -12%.
`COc1c(S(=O)(=O)NCCN2CCOCC2)ccc(Cl)c1Cl` gave HPGD block -6%.
c1ccc(-c2nc(C3CCCCC3)no2)cc1 was read as HPGD block -1%.
`NNC(=O)c1ccc(COc2ccccc2)cc1` gave HPGD block -19%.
CCCCCC(=O)Nc1cc2[nH]c(=O)cc(COC)c2cc1C was read as HPGD block inconclusive.
`C=CCOC(=O)C1C(=O)CC(C)(O)C(C(=O)OCC=C)C1c1ccc(OCC)cc1` (stereo not given) gave HPGD block 1%.
For O=CNCCCc1nc2ccccc2n1Cc1cccc2ccccc12 the results were HPGD block -3%.
Clc1cccc(Cl)c1Cn1c(-c2cccnc2Cl)nc2ccccc21 was read as HPGD block 0%.
Screening Cc1oc2c(c1C(=O)NCc1cc(C(=O)O)co1)CCCC2 returned HPGD block -11%.
Screening CC[N+](CC)(CCNC(=O)C(=O)NCC[N+](CC)(CC)Cc1ccccc1Cl)Cc1ccccc1Cl returned HPGD block -4%.
For CC1CC2(CCCCC2)N2C(=O)C(=O)c3cccc1c32 (stereo not given) the results were HPGD block -8%.
CC(=NCc1ccccc1)C1=C(O)COC1=O was read as HPGD block -13%.
For Cn1c(=O)c2c(SCC(=O)N3CCCc4ccccc43)nc(C3CC3)nc2n(C)c1=O the results were HPGD block -7%.
For CCCCN(CC)S(=O)(=O)c1ccccc1 the results were HPGD block -15%.
For O=C(N/N=C/c1ccccn1)c1ccc(Br)o1 the results were HPGD block -16%.
For COc1ccc(-c2cc(C(=O)NCCc3ccccc3)no2)cc1OC the results were HPGD block inconclusive.
Cc1nnc(NC(=O)CSc2nc3c(c(=O)n2CCc2ccccc2)SC(C)C3)s1 (stereo not given) was read as HPGD block -10%.
For O=C(c1cnccn1)N1CCC[C@@]2(CCN(Cc3ccncc3)C2)C1 the results were HPGD block -3%.
`CCOc1ccc(C(=O)Nc2c(C(N)=O)oc3ccccc23)cc1` gave HPGD block inconclusive.
`CC(C)c1ccc(/C=C2\SC(N3CCCC3)=NC2=O)cc1` gave HPGD block -15%.
For CCCc1nc2ccc(NC(=O)c3ccco3)cc2c(=O)n1Cc1ccc(Cl)cc1 the results were HPGD block -18%.
For O=c1c2cc(N3CCOCC3)ccc2[nH]c(=S)n1CCN1CCCC1 the results were HPGD block -17%.
Cc1ccc(Cn2ccc(NC(=O)c3cc(-c4cccs4)on3)n2)cc1 was read as HPGD block inconclusive.
For C#CCn1c(=NC(=O)c2cc(Cl)sc2Cl)sc2cc(S(N)(=O)=O)ccc21 the results were HPGD block inconclusive.
COc1ccc(NC(=O)C(=O)NCCN2CCN(C(=O)c3cccs3)CC2)cc1 was read as HPGD block 3%.
O=C1NC(c2ccccc2)=C(c2nc3ccccc3s2)C(c2ccc(F)cc2)N1 (stereo not given) was read as HPGD block -4%.
`CC1CCCC(C(=O)OCc2ccccc2)N1` (stereo not given) gave HPGD block -12%.
COC(=O)CCCCCCCCCCN1CCCCC1 was read as HPGD block -4%.
`CCNc1nc(C)c2cc(Br)c(=O)n(CC)c2n1` gave HPGD block inconclusive.
